HNF4A DNA FP = change in binding of human HNF4 alpha to DNA; activity change, % at 10 µM; hit rate 0.3% among 360,000; HNF4a-FITC DNA binding, fluorescence polarization, 1 h; in the data active means activity change above about 30%, passing the limit was not always enough;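 further: controls were the assay level and a saturating level of protein; the project sought stronger binding though the title names inhibitors; some compounds called inactive have numbers as strong as hits; positive values seem to mean higher polarization but the record does not say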
Target sequence (P41235 whole entry, looked up): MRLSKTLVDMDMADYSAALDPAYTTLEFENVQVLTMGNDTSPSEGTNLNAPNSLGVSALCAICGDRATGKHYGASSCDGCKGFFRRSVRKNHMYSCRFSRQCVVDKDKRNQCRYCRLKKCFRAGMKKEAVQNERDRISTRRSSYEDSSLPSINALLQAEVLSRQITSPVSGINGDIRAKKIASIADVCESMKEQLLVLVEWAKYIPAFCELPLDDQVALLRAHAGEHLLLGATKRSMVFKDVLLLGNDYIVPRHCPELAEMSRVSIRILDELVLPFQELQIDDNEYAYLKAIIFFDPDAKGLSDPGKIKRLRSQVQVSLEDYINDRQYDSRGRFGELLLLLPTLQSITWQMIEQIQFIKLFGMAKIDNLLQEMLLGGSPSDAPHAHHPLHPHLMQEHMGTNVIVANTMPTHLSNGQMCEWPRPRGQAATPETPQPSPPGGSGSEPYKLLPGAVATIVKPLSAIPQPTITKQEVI
MLL AF4-AF9 inh = MLL-AF4/AF9 protein interaction inhibition | AlphaScreen, biotin-AF4 peptide binding to FLAG-AF9 | inhibition, % at 10 µM | hit rate 0.47% among 350,000 | AID 651704;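 active means every replicate reaching a set inhibition limit, whatever the replicate mean, cut at about 25% in these data; inconclusive means mean inhibition reaches that limit but some replicates miss it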;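 further: 0% = plate neutral control median and 100% = total signal loss; the record names both 10 and 1 µM as test concentration; the first replicate is given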
Vif TR-FRET = inhibitors of Vif binding to APOBEC3G peptide, primary screen, biochemical, TR-FRET, GST-Vif 1-94, biotin-A3G peptide, dose response retest (AID 1117319). TR-FRET GST-Vif / biotin-A3G peptide binding; higher % means a stronger effect; test concentration not given here; strong numbers were not always called active. hit rate 0.57% among 260,000. inhibition, %, or IC50 in µM where a hit was titrated;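 active means above the screen mean plus three standard deviations and confirmed in dose response; inconclusive means results disagree or hit not tested in dose response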;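 further: Vif residues 1-94 fused to GST binding biotinylated APOBEC3G peptide 110-148; 0% = full assay without inhibitor and 100% = GST in place of GST-Vif; retest series ran down from 100 µM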
UCH37 DUB inh = human UCH37 deubiquitinating enzyme inhibition | Q9Y5K5 | purified proteasome/UCH37, Ub-AMC cleavage fluorescence | inhibition, % (test concentration not listed) | hit rate 0.33% among 330,000 | AID 588478;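 active means mean of two replicates above 20%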;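 further: 0% = compound-free wells with enzyme and 100% = wells lacking proteasome; stock transfer was 100 nL into about 20 µL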
Target sequence (Q9Y5K5 whole entry, looked up): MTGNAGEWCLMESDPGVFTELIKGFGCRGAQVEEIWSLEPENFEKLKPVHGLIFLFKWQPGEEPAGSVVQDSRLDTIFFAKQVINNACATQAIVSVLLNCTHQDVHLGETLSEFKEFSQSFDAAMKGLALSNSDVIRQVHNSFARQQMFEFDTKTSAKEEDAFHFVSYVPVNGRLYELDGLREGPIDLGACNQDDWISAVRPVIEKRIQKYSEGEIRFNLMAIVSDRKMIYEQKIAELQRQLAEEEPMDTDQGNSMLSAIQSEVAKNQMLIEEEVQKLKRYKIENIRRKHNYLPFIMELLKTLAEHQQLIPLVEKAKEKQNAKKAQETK
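system = Proteasome-associated human UCH37 deubiquitinase | amount = 0.15 nM proteasome as dispensed | medium = pH 7.4 Tris-HCl (50 mM) with ovalbumin, ATP-MgCl2, DTT | incubation = 30 min preincubation with enzyme, 25 min cleavage at room temperature | detection = AMC fluorescence 355/460 nm | read-out basis = percent inhibition | controls = no-proteasome and no-compound wells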
E coli growth = blocks Escherichia coli growth | OD600, 23 h; stronger effect = lower value | OD600 absorbance (no concentration beside the values) | hit rate 0.21% among 330,000;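 active means OD600 absorbance below the run mean of sample wells minus 3.6 SD, in any replicate, cut at about 0.56 in these data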;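 further: stock transfer was 300 nL into about 60 µL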
FGF22 binding = shifts melting point of recombinant human FGF22 | recombinant FGF22 thermal shift, SYPRO orange fluorescence; percent of sucrose octasulfate shift, DMSO zero | calls only at 9.99 µM | hit rate 1.5% among 340,000;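 active means melting point raised past a set limit in the mean and every replicate; inconclusive means no clear call; three in four hits are not shown here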
Target sequence (Q9HCT0 whole entry, looked up): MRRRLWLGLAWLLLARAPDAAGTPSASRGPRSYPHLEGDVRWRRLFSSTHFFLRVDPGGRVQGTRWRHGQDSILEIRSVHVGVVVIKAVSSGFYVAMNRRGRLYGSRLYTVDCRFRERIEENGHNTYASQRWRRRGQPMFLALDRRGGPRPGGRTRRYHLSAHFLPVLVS
RanGTP-Impb inh = inhibitors of RanGTP-importin-beta interaction, primary screen, biochemical, FRET, CFP-Ran, YFP-importin-beta, homogeneous. cell-free CFP-Ran/YFP-importin-beta FRET ratio. inhibition, % (test concentration not listed). hit rate 1.1% among 300,000. AID 2216;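 active means most replicates above 15%; inconclusive means exactly half above 15%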;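 further: 0% = DMSO wells and 100% = Ran loaded with GDP instead of GTP; wells of about 40 µL received 100 nL stock; the first replicate is given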
The depositor's hits bear a star; i = inactive; u = inconclusive; x = no result given; & = joins results of further samples.

Order of values: MLL AF4-AF9 inh, HNF4A DNA FP, E coli growth, Vif TR-FRET, UCH37 DUB inh, FGF22 binding, RanGTP-Impb inh
> O=C(Cc1cccs1)N[C@@H]1c2ccccc2CC[C@H]1OCc1ccccc1
→ -4.0, 1.3, 0.7, 4%, 0.6, i, x
> Cc1ccnc2c(N3C(=O)C4C5C=CC(C5)C4(C)C3=O)cccc12 (centres undefined)
→ -2.2, 2.4, 0.77, u, 4.4, i, 1.7
> Cc1ccc(-c2cnc(-c3ccccc3C(=O)O)o2)cc1
→ 0.3, 2.9, 0.71, x, -118, i, 2.4
> CCN(CC(=O)Nc1c(F)cccc1F)C(=O)C1CCN(S(=O)(=O)c2ccccc2C(=O)OC)CC1
→ 3.3, 3.0, 0.63, x, 0.6, i, x
> OC(CNc1nc(-c2cccnc2)nc2ccccc12)c1ccccc1 (centres undefined)
→ 4.9, 11, 0.67, 12%, 3.4, i, -1.7
> CC(C)Nc1nc(Nc2ccc(F)cc2)c2sccc2n1
→ 4.9, 1.8, x, x, x, i, x
> Cc1ccc(NC(=O)CN(C)C(=O)c2ccc(Cl)c([N+](=O)[O-])c2)cc1
→ 0.7, -1.0, 0.69, x, 2.2, i, u
> CCN(CC)CCCNC(=O)c1cc(-c2ccccc2)c(N2CCCCC2)s1
→ 29*, -4.0, 0.65, 7%, -1.8, i, -2.7
> COc1c(Cl)cc(Cl)cc1CNCCNCC(C)O (centres undefined)
→ 7.1, 0.3, 0.65, -2%, 6.8, i, -1.2
> CCOc1c(C(N)=O)c(-c2ccccc2)c2c(=O)[nH]c3ccccc3n12
→ x, 0.5, 0.78, 0%, -22, x, 3.2
> CCOc1ccc(C(O)(c2ccccc2OC)C(CN2CCCC2)c2ccccc2)cc1 (centres undefined)
→ 5.6, 1.3, 0.68, -6%, 5.9, i, -1.4
> CCC(=NCc1ccco1)c1c(C(F)(F)F)[nH]n(-c2nc3ccccc3s2)c1=O
→ x, -0.7, 0.7, 1%, 0.8, x, 1.0
> Cn1nccc1C(=O)Nc1ccc(Cl)cc1
→ -47, -3.0, 0.69, 7%, 5.3, i, 1.8
> CNC[C@@H]1Oc2cc(Br)ccc2S(=O)(=O)N([C@@H](C)CO)C[C@@H]1C
→ -1.1&-6.1&-4.0, 1.1, x, 17%, x, i, x
> Cc1cccc(N2C(=O)/C(=C\c3ccc(C(=O)O)cc3)c3ccccc3C2=O)c1
→ -1.2, -3.7, 0.71, 11%, -1.3, i, 1.7
> O=[N+]([O-])c1cc(Br)c(O)c(/C=N/Nc2nc3ccccc3s2)c1
→ 1.0, -14, x, 5%, x, x, x
> COc1ccc(CC(=O)Nc2ccc(S(=O)(=O)Nc3cc(C)nc(C)n3)cc2)cc1OC
→ -2.7, 4.4, x, -3%, x, i, x
> CN(Cc1ccccc1)C(=O)c1csc([C@@H]2C[C@H](O)[C@@H](CO)O2)n1
→ -4.2, 0.5, x, x, x, i, x
> COC(=O)c1ccc(Cl)c(NC(=O)Cc2ccccc2[N+](=O)[O-])c1
→ -5.5, 1.4, 0.72, 21%, 2.8, i, 2.5
> O=S(=O)(c1ccc(NC(=S)N2CCN(c3ccc(O)cc3)CC2)cc1)N1CCOCC1
→ 8.1, 4.1, 0.67, -1%, 2.0, i, -0.6
> Cc1ccc(NC(=O)c2sccc2-n2cccc2)c(Cl)c1
→ 1.5, -3.8, 0.7, x, 3.0, i, -0.9
> O=C(O)c1ccc(CSc2ncn[nH]2)cc1
→ 1.6, 1.0, 0.72, u, 4.8, i, 4.5
> CCNc1nc2c(c(=O)n(C)c(=O)n2C)n1CCCc1ccccc1
→ 6.6, -3.8, x, 3%, x, i, -3.0
> O=C(O)C1CCCN1S(=O)(=O)c1ccc(Br)s1 (centres undefined) (tested in a mixture with another compound)
→ x, 1.1, 0.71, 1%, 2.6, x, -0.3
> O=C(c1ccco1)N1CCCC(N2CCN(c3cccc(C(F)(F)F)c3)CC2)C1 (centres undefined)
→ 5.4, -5.2, 0.7, x, 7.2, i, -0.3
> O=C(CCCC(=O)Nc1cccc(Br)c1)N/N=C/c1cc([N+](=O)[O-])ccc1O
→ 1.4, -0.6, x, x, x, i, u
> N#Cc1c(N)nc2c(c1-c1ccccc1)CCCC2
→ x, -1.6, 0.66, -2%, -5.5, x, 4.4
> COc1ccc(C(=O)NCc2nnc(SC)n2Cc2ccccc2)cc1
→ -1.0, -2.6, 0.7, -5%, 0.7, i, 4.4
> COc1ccc(C)cc1NC(=O)CSc1nc2scc(C)c2c(=O)[nH]1
→ -12, 4.4, 0.76, x, 0.0, i, 3.1
> c1ccc(N2OCC3Cn4c(nc5ccccc54)C32)cc1 (centres undefined)
→ -12, -0.8, 0.67, x, -1.2, i, 7.0
> CCc1ccc(S(=O)(=O)Nc2c(C)n(C)n(-c3ccccc3)c2=O)cc1
→ -2.0, -3.4, 0.68, -3%, -1.0, i, -2.1
> CCCSc1ccc([C@@H]2[C@H]3C(=O)N(CC)C(=O)[C@H]3[C@]3(C(=O)OC)CCCN23)cc1
→ -1.6, 2.9, x, x, 0.8, i, x
> CN(CCc1ccccn1)C(=O)Nc1cccc(Cl)c1
→ 1.1, -0.6, 0.66, u, 1.3, i, 1.5
> Cc1ccc(NC(=O)CCNS(=O)(=O)c2ccc3c(c2)oc(=O)n3C)cc1
→ x, -4.2, 0.69, 14%, 4.2, x, -2.6
> COc1ccc(C(=O)CSc2n[nH]c(=O)n2Cc2ccco2)cc1
→ -4.6, 2.9, 0.69, 19%, 1.2, i, 7.5
> COCCN(C(=O)COC(=O)CNC(=O)c1ccc(C)cc1)c1c(N)n(Cc2ccccc2)c(=O)[nH]c1=O
→ 0.0, -4.2, x, x, x, i, x
> CC(=O)Oc1c(C(C)C)cc(N(C(C)=O)c2ccccc2)cc1C(C)C
→ -1.8, -3.5, 0.7, x, 4.8, i, -3.1
> C=CCOC(=O)C1=C(C)N=C2SCCC(=O)N2C1/C=C/c1ccccc1OC (centres undefined)
→ -4.3, -3.5, 0.72, 7%, 4.9, i, -2.2
> COC(=O)C1=NNC(C(=O)OC)C1c1ccccc1 (centres undefined)
→ 1.4, 0.2, x, -6%, x, i, x
> Cc1ccc(OCc2nnc(SCC(N)=O)n2N)cc1
→ 3.3, 2.9, 0.68, x, -0.4, i, 6.5
> NC(=O)C1CCN(C(=O)c2cccc(CN3C(=O)c4ccccc4C3=O)c2)CC1
→ -5.5, -0.3, 0.69, x, 0.5, i, x
> CCCC(=O)NCCc1cc2ccc(OC)cc2[nH]c1=O
→ x, 0.2, 0.65, -5%, 2.5, x, -1.2
> CCOC(=O)Cn1cc(C(=O)OC)c2ccccc21
→ x, 1.1, 0.71, 1%, 5.1, x, 0.6
> CCOC(=O)C1(CCOc2ccccc2)CCN(Cc2cnc(C)[nH]2)CC1
→ 5.3, -3.5, 0.71, -19%, -2.1, i, -0.9
> COc1ccc(S(=O)(=O)NCC2CCCN(C(=O)CNC(C)=O)C2)cc1 (centres undefined)
→ -0.9, 4.7, 0.69, 9%, 1.6, i, 0.3
> COc1cccc(CN(C)C(=O)c2ccc(Cl)c(S(=O)(=O)N3CCCCCC3)c2)c1OC
→ 0.6, -0.6, x, x, x, i, x
> COc1ccc(C(=O)Oc2ccc3ccc(=O)oc3c2)cc1OC
→ -37, -2.8, 0.7, x, -229, i, 0.7
> Cn1c(-c2ccc(F)cc2)cnc1NCc1ccc(C#N)cc1
→ x, -3.5, 0.66, 15%, 2.5, x, 2.2
> Cn1c(=O)oc2cc(S(=O)(=O)N3CCC(C(=O)NCc4cccs4)CC3)ccc21
→ -17, 3.9, 0.73, -3%, 3.9, i, 8.8
> COc1ccc(OCc2nc(C#N)c(NCCCn3ccnc3)o2)cc1
→ 0.8, -2.8, 0.7, -4%, 6.1, x, 0.6
> Cc1cc(/C=C2\SC(N)=NC2=O)c(C)n1-c1ccc(F)cc1
→ 0.0, 9.1, x, x, 3.1, i, 3.9
> CCC(=O)N1CCC(C)(C(=O)Nc2nccc3ccccc23)C1 (centres undefined)
→ -3.5, 0.2, x, x, x, i, x
> COc1cccc(CNC(=O)Cc2ccc(NC(=O)C3=C(C)OCCS3)cc2)c1
→ -1.2, -0.8, 0.68, 8%, 2.8, i, -4.9
> Cn1c2c(c(=O)n(C)c1=O)C1(C(=O)Nc3ccccc31)C(C#N)=C(N)O2 (centres undefined)
→ x, 2.6, 0.67, -3%, 3.3, x, -3.2
> O=C(COc1ccccc1C(=O)NCC1CCCO1)Nc1ccc(Br)cc1 (centres undefined)
→ -0.4, -1.5, 0.65, x, 0.7, i, -3.8
> c1ccc(CCNc2c3c(nc4ncnn24)CCC3)cc1
→ x, -0.9, 0.68, 14%, 5.8, x, -2.1
> COc1cccc(C(=O)NCCCNC(=O)c2cccc(OC)c2)c1
→ -2.3, -1.9, 0.7, 2%, 4.4, i, -5.3
> Cc1ccc(S(=O)(=O)N(C)Cc2ccc(C(=O)N/N=C3\CCCC(=O)C3)cc2)cc1
→ -2.7, 2.1, x, 8%, x, i, -4.3
> CC(=O)Nc1ccc(-c2noc(-c3csc([C@@H]4C[C@H](O)[C@@H](CO)O4)n3)n2)cc1
→ -12, 3.1, x, x, x, i, x
> CCOC(=O)COc1c(C=O)cc(Br)cc1OC
→ x, 1.0, 0.72, -1%, -1.7, x, 7.0

The list continues.
Order of values: MLL AF4-AF9 inh, HNF4A DNA FP, E coli growth, Vif TR-FRET, UCH37 DUB inh, FGF22 binding, RanGTP-Impb inh
> Cc1ccc(-c2nc(-c3cccnc3)sc2CC(=O)Nc2ccc(C)c(Cl)c2)cc1
→ x, 8.1, 0.74, 0%, 2.2, x, -4.2
> COc1ccc(CNc2ncccc2[N+](=O)[O-])cc1
→ 1.3, -1.7, 0.68, 3%, 4.0, i, -0.1
> CC(=O)Nc1c(Br)cc2c(c1Br)C(=O)c1ccccc1-2
→ -2.4, 0.9, x, -8%, x, i, x
> O=C(c1c(F)cccc1F)N1CCN(c2ncccn2)CC1
→ x, -1.1, 0.75, 0%, -6.9, x, 0.4
> COc1ccc(CCNC(=O)C2CC(=O)N(c3ccc(C)cc3)C2)cc1OC (centres undefined)
→ -12, 2.7, 0.7, x, 5.9, x, 2.6
> CC(=O)Nc1ccc(S(=O)(=O)N(C)CC(=O)OCC(=O)N2CCCCCC2)cc1
→ -0.1, -2.9, 0.69, x, 0.0, i, -0.2
> O=C(c1cncc(Br)c1)N1CCN(S(=O)(=O)c2ccccc2C(F)(F)F)CC1
→ -1.3, 4.7, 0.67, x, 4.4, i, -0.1
> CC(=O)Oc1cc2c(cc1OC(C)=O)C(=O)CCCC2
→ -2.9, -0.3, x, -4%, x, i, x
> COc1ccc(/C=N/n2c(C)nc3sc(C)c(C)c3c2=O)cc1OC
→ -1.9, 3.5, x, -11%, x, x, 1.1
> CO[C@H]1CN(C)C(=O)c2ccc(NC(=O)C3CCC3)cc2OC[C@H](C)N(CC2CCCCC2)C[C@@H]1C
→ 2.6&1.0, -3.4, x, x, x, i, x
> O=C(NCc1ccco1)c1cc(NS(=O)(=O)c2cccc([N+](=O)[O-])c2)ccc1O
→ -3.4, 2.0, 0.62, x, 4.0, x, -2.5
> CS(=O)(=O)N(Cc1ccccc1)c1ccc(C(=O)N2CCc3ccccc3C2)cc1
→ x, -1.6, 0.72, -3%, 1.3, x, -1.1
> CO/N=C(/CS(=O)(=O)c1ccc(Br)cc1)c1ccc(OC)cc1
→ x, -1.7, x, 4%, x, x, -12
> CC(C)(C(=O)c1ccccc1)/[N+]([O-])=C/c1ccc(Br)cc1
→ -6.8, 0.2, 0.72, -7%, 3.0, i, x
> COc1ccc(N2CCN(CC(=O)Nc3ncc(C)s3)CC2)cc1
→ 3.8, -1.8, 0.67, 4%, 0.7, i, -0.2
> Cc1cc(C)cc(C(=O)N2CCN(Cc3ccc4c(c3)OCO4)CC2)c1
→ -4.7, 2.3, 0.65, -8%, 2.3, i, 1.6

These rows are one share of the data. The share of hits here may be higher or lower than overall.
